# Source: PubChem BioAssay (Broad Institute)
# Tg IFNy HTS: blocks Toxoplasma gondii growth in the presence of IFN-gamma. Toxoplasma gondii growth in IFN-gamma-treated host cells; stronger effect = lower value; reference of the scale not given here. activity change, negative = inhibition, %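 (about 20 µM by stock and volumes)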. hit rate 3.8% among 69,000;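 active = below -70%; inconclusive = fit judged invalid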;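 note: host cells are HeLa cells infected with Toxoplasma gondii; parasite growth read as luciferase light; one replicate is shown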
# Numbers without * were called inactive; i = inactive; ? = inconclusive; & = joins results of further samples.
SMILES,Tg IFNy HTS
COc1ccc(OC)c(C(=O)CSc2nnc(COc3ccc(Cl)c(C)c3)o2)c1,-20.7
C[C@@]1(O)CCN(C(=O)Cn2ccccc2=O)C[C@@H]1Cc1ccccc1,-7.5
c1ncn(Cc2cnc3n2CCN(Cc2ccoc2)C3)n1,-0.5
CCN1C(=O)[C@@H]2CN(CC(C)C)C[C@@H]2C12CCN(C(=O)c1ccncn1)CC2,-1.2
Cc1cccc(-c2nc(CCNC(=O)CCCc3ccccc3)cs2)c1,i
O[C@]12CCCC[C@H]1CN(Cc1ccc(-c3ccn[nH]3)o1)CC2,-29.2
Cc1ccc(N(Cc2nc(-c3ccc(OC(C)C)cc3)oc2C)S(=O)(=O)c2cccs2)cc1,-7.9
C/C=C/c1ccc(C2[C@H]3CNC[C@@H]2N3S(=O)(=O)c2ccc(Cl)cc2)cc1 (stereo partly specified),31.3
Cc1ccccc1C(=O)NCCc1sc(-c2ccc(F)cc2)nc1C,-50.6
CSc1cccc(NC(=O)CN2CCC3(CC2)N=C(c2ccc(F)cc2)C(=O)N3)c1,11.4
Cc1cc(F)ccc1S(=O)(=O)NCCc1csc(-c2ccc(Cl)cc2)n1,-1.6
COc1ccc2c(c1)CC(NCCOc1ccccc1F)CC2 (stereo unspecified),20.7

# As a short view, part of the list above.
SMILES,Tg IFNy HTS
Cc1ccc(N(Cc2nc(-c3ccc(OC(C)C)cc3)oc2C)S(=O)(=O)c2cccs2)cc1,-7.9
C/C=C/c1ccc(C2[C@H]3CNC[C@@H]2N3S(=O)(=O)c2ccc(Cl)cc2)cc1 (stereo partly specified),31.3
Cc1ccccc1C(=O)NCCc1sc(-c2ccc(F)cc2)nc1C,-50.6
CSc1cccc(NC(=O)CN2CCC3(CC2)N=C(c2ccc(F)cc2)C(=O)N3)c1,11.4
Cc1cc(F)ccc1S(=O)(=O)NCCc1csc(-c2ccc(Cl)cc2)n1,-1.6
COc1ccc2c(c1)CC(NCCOc1ccccc1F)CC2 (stereo unspecified),20.7

# (further entries)
SMILES,Tg IFNy HTS
Cn1cc(N2CC3(CCN(C(=O)c4cnccn4)C3)CC2=O)cn1 (stereo unspecified),6.7
COCCCN1CC2(CCCCN2C(C)=O)CC1=O (stereo unspecified),116.7
COc1ccc(S(=O)(=O)NCC(C)n2cncn2)cc1 (stereo unspecified),-4.2
COc1ccc(S(=O)(=O)N2CCC[C@H](Cn3nnc(-c4cccs4)n3)C2)cc1,-49.1
O=C(NC1Cc2ccccc2C1)[C@@H]1[C@@H](CO)[C@@H]2Cn3c(cccc3=O)[C@@H]2N1C(=O)c1cnccn1,4.7
CCc1cc(C(=O)N2CC(=O)N(C3CCCCC3)CC(OCc3ccccc3)C2)no1 (stereo unspecified),-2.7
CC(C)OCCCNC(=O)CC1Nc2c3ccccc3nc(=S)n2C1=O (stereo unspecified),18.7
COc1cccc2c1OCCCN(c1nc(C)nc3c1cnn3C)C2,-18.7
O=C(CN1CCOCC1)N[C@@H]1CC[C@@H](CCn2cc(C3CC3)nn2)O[C@@H]1CO,11.3
N#C[C@@H]1[C@H](c2ccccc2-c2ccccc2F)[C@H](CO)N1C(=O)c1cccc(F)c1,17.7
Cc1nc2c(s1)sc1ccccc12,16.2
OC[C@H]1[C@@H](c2ccccc2)C2(CN(Cc3nccs3)C2)N1CC1CCOCC1,-20.5
O=C(O)CC(NC(=O)CC12CC3CC(CC(C3)C1)C2)C(F)(F)F (stereo unspecified),1.7
CC(C)NC(=O)Nc1ccc2c(c1)C(=O)N(C)[C@H]1CC[C@H](CC(=O)NCc3ccc(F)cc3)O[C@@H]1CO2,-25.3
Cc1cc(-n2cnc(-c3cn(C)nc3C)n2)no1,43.1
Cc1cccc(-c2nc(CCNC(=O)c3ccc(Br)o3)cs2)c1,i
C=CCNc1ccccc1C(=O)NCc1cc(=O)[nH]cn1,10.1
Cc1csc(-c2ccc(N3CCN(C(=O)c4cccc5[nH]ccc45)CC3)nc2)n1,72.7
CO[C@@H]1CN(C)C(=O)c2ccc(NC(=O)C3CC3)cc2OC[C@H](C)N(C(C)=O)C[C@H]1C,-11.3
CCCC(O)C#Cc1cnc2c(c1)C(=O)N([C@H](C)CO)C[C@H](C)[C@H](CN(C)S(=O)(=O)c1ccc(C#N)cc1)O2 (stereo partly specified),6.0
CCS(=O)(=O)Nc1ccc2c(c1)C(=O)N(C)[C@@H]1CC[C@@H](CC(=O)NCCCN3CCOCC3)O[C@H]1CO2,-2.3
O=C(Cn1ncc2c(N3CCN(c4ccccc4)CC3)ncnc21)N1CCCCC1,65.1
COc1ccc(CSc2nc3ccccc3n2C)cc1F,402.2
O=C1CC2(CCOCC2)Oc2ccc(Cl)cc21,99.5
O=C(C1CCOCC1)N1CC2(C1)[C@@H](c1ccccc1)[C@H](CO)N2Cc1ccccc1F,44.0
CO/N=C(/C(=O)N[C@@H]1C(=O)N2C(C(=O)O)=C(C[n+]3cccc4c3CCC4)CS[C@H]12)c1csc(N)n1,13.9
Cc1oc(C(C)C)cc1C(=O)NCC1CCCN(S(C)(=O)=O)C1 (stereo unspecified),-19.6
O=C(O)COc1ccccc1CN1CCCN(c2ccc(F)cc2)CC1,0.0
COc1ccccc1-c1ccc2c(c1)O[C@H](CN(C)CC1CCOCC1)[C@H](C)CN([C@H](C)CO)S2(=O)=O,-37.2
O=C(NCc1cccnc1)C1CCN(Cc2cc3ccccc3n2Cc2cccc(F)c2)CC1,-0.5
COc1ccc2c3c(n(C)c2c1)[C@@H](CO)N(C(=O)Nc1ccccc1F)CC31CN(C(=O)c2ccccc2F)C1,-7.2
CCOC(=O)c1coc(N2CCCC3(CC2)CN(C)C(=O)O3)n1 (stereo unspecified),-49.5
O=C1CN(C(=O)c2c(F)cccc2Cl)CC(OCc2ccccc2)CN1Cc1cccnc1 (stereo unspecified),11.4
CN(Cc1ccccc1)C(=O)c1nc(Nc2ccc(F)cc2)c2ccccc2n1,25.0
Cc1nc(-c2ccc(F)cc2)sc1CCNC(=O)C(=O)Nc1ccc(F)cc1F,-13.5
CC(C)c1cc(C2CCN(C(=O)COc3ccc4c(c3)OCO4)CC2)[nH]n1,-7.1
Cc1ccsc1C(CNC(=O)c1ccc2c(c1)no[n+]2[O-])N(C)C (stereo unspecified),12.4
O=C(NCCc1csc(-c2ccc(C(F)(F)F)cc2)n1)C(=O)Nc1ccccc1F,21.0
COc1ccccc1-c1cc(C(=O)N2CCOC(C(F)(F)F)C2)[nH]n1 (stereo unspecified),-13.2
O=C(Cn1c(=O)c(S(=O)(=O)c2ccccc2)cc2ccccc21)NC1CCCCC1,7.5
Cc1cc(C)cc(NC(=O)c2nnn(Cc3nc(-c4ccc(OC(C)C)cc4)oc3C)c2C)c1,-65.5
C/C=C/c1ccc(C2[C@H]3CNC[C@@H]2N3S(=O)(=O)c2c(C)noc2C)cc1 (stereo partly specified),1.2
O=C(O)c1cccc(CC2CCN(C(=O)Nc3ccccc3Cl)C2)c1 (stereo unspecified),24.7
CCCc1nc(CNC(=O)c2c(O)cccc2O)cs1,-7.9
CC(C)(C)c1ccc(-n2c(CN)n[nH]c2=O)cc1,16.1
COc1ccc(CNC(=O)CCC2N=C3c4ccccc4N=C(SCc4cc(=O)n5ccccc5n4)N3C2=O)cc1 (stereo unspecified),8.3
O=C(Nc1ccccc1)[C@H]1[C@H](CO)[C@H]2Cn3c(ccc(C4=CCCCC4)c3=O)[C@H]2N1Cc1cocn1,-7.3
O=C(C[C@H]1CC[C@@H](NC(=O)CN2CCOCC2)[C@@H](CO)O1)NC1CCC1,6.5
O=C(NCC1CCCCC1)[C@H]1[C@H](CO)[C@H]2Cn3c(ccc(-c4ccc(F)cc4)c3=O)[C@@H]1N2,1.6
CC(=O)NCCNC(=O)c1ccc(CNc2ccc(C)cc2)cc1,117.6
COc1ccccc1-c1ccc2c(c1)[C@@H]1[C@@H](CCN1S(=O)(=O)c1ccc(C)cc1)[C@H](CO)N2,-78.1*
C=CCNc1ccccc1C(=O)N1C[C@H](OC(C)C)[C@@H](O)C1,2.4
Cc1ccc(C(=O)N2CCOCC2)cc1,-2.6
CC12CCC(C(=O)O)(c3nc4ccccc4nc31)C2(C)C (stereo unspecified),2.8
CCOC(=O)[C@H]1O[C@@H]1C(=O)N[C@@H](CC(C)C)C(=O)NCCC(C)C,1.1&8.4
CNC(=O)c1[nH]nc2c1C(CCSC)CC(=O)N2 (stereo unspecified),4.0
Cc1cc(Nc2ncnc3c2CCN(C(=O)c2ccn[nH]2)C3)n[nH]1,-9.4
Cc1ccc(F)c(C(=O)NC(C)c2nnc3n2CCNCC3)c1Cl (stereo unspecified),-1.3
C[C@H](CO)N1C[C@H](C)[C@@H](CN(C)S(=O)(=O)c2cn(C)cn2)Oc2cc(C#Cc3cccc(F)c3)ccc2S1(=O)=O,?
Cc1nc(CCC(=O)N2CCC(=O)N(CC3CC3)C(C(C)C)C2)n[nH]1 (stereo unspecified),9.1

# (next part)
SMILES,Tg IFNy HTS
N#CCCN(Cc1ccccc1)C(=S)Nc1cccc(C(F)(F)F)c1,-35.2
CCOC(=O)c1cnc(COc2ccc(OC)cc2)[nH]c1=O,-2.1
Cc1occc1C(=O)N1CC[C@@H](N2CCOCC2)[C@H]1Cc1ccccc1,-25.7
O=C(Nc1ccccc1C(=O)NC1CCCCNC1=O)c1cccc(C(F)(F)F)c1 (stereo unspecified),-35.1
O=C(Nc1ccc(C(F)(F)F)cc1)N[C@@H]1C=C[C@H](CC(=O)N2CCCCC2)O[C@H]1CO,-14.9
Cc1ccnc(CC(C)N(C)C(=O)c2cnn(Cc3ccccc3)c2)c1 (stereo unspecified),-1.7
Cc1cnn(Cc2nc(-c3ccc(NC(=O)c4sccc4C)cc3)oc2C)c1,-51.3
CCCN1CC(Nc2ncc(C)c(N(C)C)n2)CC1=O (stereo unspecified),3.4
CN1CC(=O)N/C1=N/C(=O)Nc1cccc(Cl)c1,18.7
Cc1ccc2[nH]c(-c3nc(CCN(C)C(=O)c4cccn4C)no3)cc2c1,47.9
CCn1c(C2CCCN(C(=O)c3nn(C)c4ccc(C)cc34)C2)n[nH]c1=O (stereo unspecified),1.1
COc1ccccc1-c1ccc([C@@H]2[C@H](C#N)N[C@@H]2CO)cc1,6.9
c1nc(N2C[C@@H]3[C@H](C2)[C@H]2CC[C@@H]3O2)c2cc[nH]c2n1,10.6
Cc1nc2c(nc(SCc3nc(-c4ccc(Cl)cc4)oc3C)n2C)c(=O)[nH]1,-1.6
CCN1c2ccc(F)cc2C(=O)NC12CCN(C(=O)c1ccc(OC)cc1)CC2,10.8
CC(C)CN1CCc2cc(C(=O)N3CCCC3)c(N(C)C)nc2CC1,1.2
O=C(N[C@@H]1CC[C@@H](CCn2cc(-c3ccccc3F)nn2)O[C@@H]1CO)c1ccc2c(c1)OCO2,24.6
Cc1oc(-c2ccc(C(=O)N3CCN(C)CC3)cc2)nc1CN1CCc2ccccc21,74.7
Cc1nc2nnc3ccc(C(=O)C4CC4)cc3c2n1C(C)C,i
Cc1nnc(N2CCCC3(CN(C(=O)NC(C)C)CCO3)C2)o1 (stereo unspecified),3.8
CCc1ccc(/C=C2\SC(=S)N(CCC(=O)N3CCN(C)CC3)C2=O)cc1,-22.5
Cc1ccccc1SC1CCN(C(=O)c2ncc[nH]2)CC1,-24.8
CC(=O)Nc1ccc(Cl)cc1-c1nc2ccccc2[nH]c1=O,9.4
O=C(CN1CCOc2ccccc2C1)NCCS(=O)(=O)N1CCCC1,3.5
Cc1c(CN(C)c2cc(N3CCCCC3)ncn2)cnn1C,22.6
CC(C)CCSc1nnc(N)s1,20.9
O=C(Nc1nnc(Cc2ccc(Cl)cc2)s1)c1nc2ncccn2n1,-8.4
C[C@H](CO)N1C[C@H](C)[C@H](CN(C)C(=O)Nc2ccccc2C(F)(F)F)OCc2ccccc2-c2c(n(C)c3ccccc23)C1=O,-10.2
COc1cccc(CNC(=O)N2CCC3(CC2)Nc2cc(F)ccc2-n2cccc23)c1,261.7
O=c1c2c([nH]c3ccc(Br)cc13)CCCC2,-94.3*
CCn1c2c(ccc1=O)CC(NCc1cccc(C#N)c1)CC2 (stereo unspecified),67.8
CCOc1ccc(C(=O)N2CCC3(CC2)NC(=O)c2cc(C)ccc2N3C)cc1,9.2
CC(C)C12CN3CC(C(C)C)(CN(C1)C3c1ccccc1O)C2=O (stereo unspecified),6.3
Cc1ccc(C2=NOC3CN(C(=O)C4CCN(S(C)(=O)=O)CC4)CC23)cc1 (stereo unspecified),-15.5
COC(=O)CCn1cc(CN2[C@@H]3CC[C@H]2CN(C)C(=O)C3)cn1,70.0
CC(=O)c1cccc(CN2CCCC(O)(CO)CC2)c1 (stereo unspecified),1.3

# Some of these compounds in order of formula weight, ascending.
SMILES,Tg IFNy HTS
Cc1c(CN(C)c2cc(N3CCCCC3)ncn2)cnn1C,22.6
CCn1c2c(ccc1=O)CC(NCc1cccc(C#N)c1)CC2 (stereo unspecified),67.8
COC(=O)CCn1cc(CN2[C@@H]3CC[C@H]2CN(C)C(=O)C3)cn1,70.0

# (further entries)
SMILES,Tg IFNy HTS
O=c1ccc(CCn2c(=O)oc3ccccc32)n[nH]1,-8.5
CCc1cnc(N2CCC3(CC2)OC(C(=O)N(C)C)Cn2ccnc23)nc1 (stereo unspecified),-17.8
CCOC(=O)Nc1c[n+](N2CCOCC2)no1,12.7
CN(C)[C@@H]1C[C@@H](C(=O)O)N(Cc2ncc[nH]2)C1,0.3
CN1CCN(NC(=O)c2ccc(-c3ccccc3)cc2)CC1,1.1
COc1ccc(NC(=O)c2nnn(Cc3nc(-c4ccccc4)oc3C)c2C)cc1,-94.2*
O=C(C1c2ccccc2-c2ccccc21)N1CCC(n2c(=O)oc3ccc(Cl)cc32)CC1,-14.6
Cc1nn(CCO)c(C)c1CN(C)Cc1cnn(-c2ccccc2)c1,2.7
CS(=O)(=O)c1cccc(CNc2nc(Nc3ccc4c(c3)CCC(=O)N4)ncc2C(F)(F)F)c1,-68.1
O=C(Cn1cc(-c2ccccn2)cn1)Nc1ccn(Cc2ccccc2)n1,3.2
CN(Cc1ccco1)C(=O)CN1C(=O)CCc2cc(S(=O)(=O)N3CCCC3)ccc21,-8.5

# Copied from the list:
# C/C=C/c1ccc(C2[C@H]3CNC[C@@H]2N3S(=O)(=O)c2ccc(Cl)cc2)cc1 (stereo partly specified) | Tg IFNy HTS = 31.3
# CN1CCN(NC(=O)c2ccc(-c3ccccc3)cc2)CC1 | Tg IFNy HTS = 1.1

# Not all compounds are listed; count on the stated rates, not on these rows.
